Compound activity: PubChem, National Center for Advancing Translational Sciences (NCATS)
SARS PLP yeast: qHTS of Yeast-based Assay for SARS-CoV PLP; AID 485353, 2010; S. cerevisiae expressing SARS-CoV PLpro, growth rescue; control for the full effect not named in the record; Potency, µM (top dose mostly 32.9 µM), without a hit: at the top dose activity, positive = growth rescue; 330,000 compounds, 0.19% hits; note: 0% is about no effect; nearly all actives have a fitted effect of over 55% in size; growth read by luminescence after 48 h
Lassa entry inh: qHTS for Inhibitors of binding or entry into cells for Lassa Virus. Lassa virus pseudotype entry inhibition, cell reporter; control for the full effect not named in the record. Potency, µM (top dose mostly 37.9 µM), for inactives: top-dose activity change, negative = inhibition, actives largely listed as inhibitors. 300,000 compounds, 1.2% hits; active means well fitted inhibition curve with a large enough effect; inconclusive means small, poorly fitted or top-dose-only effect, or effect the other way; inactive means flat fitted curve, though single readings scatter; tested in HEK293 cells; note: % is set by controls: 0 for no effect and ±100 for the full control effect; nearly all actives have a fitted effect of over 50% in size; luciferase read-out
Cruzain Triton: qHTS Assay for Promiscuous and Specific Inhibitors of Cruzain (with detergent); Potency, µM, for inactives: max response, negative = inhibition, hits mostly inhibitors; Cruzipain (Trypanosoma cruzi), P25779; purified cruzain, Z-FR-AMC fluorescence, 0.01% Triton; 200,000 compounds, 0.43% hits; active = well fitted curve in the direction sought with a large enough effect; inconclusive = small, poorly fitted or top-dose-only effect, or another doubt; inactive = no such curve, though single readings can be large; an effect the other way counts as inactive or inconclusive;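 note: plate controls were neutral wells for no effect and buffer without enzyme for full effect; nearly all actives have a fitted effect of over 40% in size; top concentration of the series not given in the record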
Target sequence (P25779 123-467 limits assumed): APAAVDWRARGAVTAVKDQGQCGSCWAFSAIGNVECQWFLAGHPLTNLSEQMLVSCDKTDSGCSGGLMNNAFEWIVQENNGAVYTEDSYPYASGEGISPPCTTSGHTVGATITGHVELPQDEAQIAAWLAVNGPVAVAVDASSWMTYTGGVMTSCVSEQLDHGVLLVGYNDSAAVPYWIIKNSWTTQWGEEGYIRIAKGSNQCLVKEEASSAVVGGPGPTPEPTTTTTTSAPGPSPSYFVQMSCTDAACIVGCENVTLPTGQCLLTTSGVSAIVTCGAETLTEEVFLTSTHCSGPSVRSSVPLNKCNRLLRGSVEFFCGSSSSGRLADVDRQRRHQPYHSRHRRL
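Cruzain (1.5 nM) preincubated 15 min at RT with compound in 100 mM sodium acetate pH 5.5, 5 mM DTT, 0.01% Triton X-100. Reaction started with 2 uM Z-FR-AMC; AMC fluorescence (ex 360/em 450 nm) change over 60 s gave rate.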
Cruzain inh noDet: qHTS Assay for Promiscuous and Specific Inhibitors of Cruzain (without detergent); Cruzipain (Trypanosoma cruzi), P25779; purified cruzain, Z-FR-AMC fluorescence, no detergent; Potency, µM, inactives show max response, negative = inhibition, actives largely listed as inhibitors; 200,000 compounds, 2.3% hits; active = well fitted curve in the direction sought with a large enough effect; inconclusive = small, poorly fitted or top-dose-only effect, or another doubt; inactive = no such curve, though single readings can be large; an effect the other way counts as inactive or inconclusive;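 note: plate controls were enzyme without inhibitor for no effect and buffer without enzyme for full effect; nearly all actives have a fitted effect of over 40% in size; top concentration of the series not given in the record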
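Detergent-free condition (0.00005% Triton X-100) in acetate buffer pH 5.5 with DTT. 1.5 nM enzyme and compound were pre-mixed 15 min, then 2 uM Z-FR-AMC substrate added; reaction progress from fluorescence change between first and third reads (60 s).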
StopGo reporter: High Throughput Screening for Foot and Mouth Disease Virus Antivirals; human cells with a luciferase reporter of 2A StopGo recoding; control for the full effect not named in the record; Potency, µM (top dose mostly 57.9 µM), without a hit: at the highest dose signal change, negative = less light; 410,000 compounds, 1.2% hits; active = well fitted falling curve with a large enough effect; inconclusive = small, poorly fitted or top-dose-only effect; inactive = no such curve, though single readings can be large or run the other way; tested in HEK293T cells; note: % is set by controls: 0 for no effect and ±100 for the full control effect; nearly all actives have a fitted effect of over 45% in size; luciferase light after 4 h
RE007 growth inh: qHTS Assay for Inhibitors of the HIV-1 protein Vpr; S. pombe RE007 Vpr strain, BacTiter-Glo ATP luminescence, 24 h; control for the full effect not named in the record; Potency, µM (titrated, usually from 92.2 µM), for inactives: top-dose activity change, negative = less growth; 360,000 compounds, 0.21% hits; AID 651644, 2012; active = well fitted falling curve with a large enough effect; inconclusive = small, poorly fitted or top-dose-only effect; inactive = no such curve, though single readings can be large or run the other way;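 note: % is set by controls: 0 for no effect and ±100 for the full control effect; nearly all actives have a fitted effect of over 50% in size; the assay follows cell death caused by Vpr and the record does not say whether a fall means rescue or toxicity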
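Fission yeast strain RE007, carrying one chromosomally integrated HIV-1 vpr copy, was seeded at OD 0.01 in PMG+AL medium with 23 nL pinned compound. After 24 h at 30 °C and 99% humidity, viability was read by BacTiter-Glo luminescence.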
NS1 inh: qHTS Assay for Inhibitors of Influenza NS1 Protein Function; S. cerevisiae slowed by influenza A NS1, growth recovery by OD600; Potency, µM (doses to about 46.1 µM), without a hit: top-dose activity, positive = more growth; 270,000 compounds, 0.4% hits; note: actives are rising curves; nearly all actives have a fitted effect of over 50% in size
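Read-out: OD600 growth recovery of NS1-expressing budding yeast. Cells grown overnight at 30C in -URA glucose medium, washed, resuspended and diluted 1:100 in 2% galactose assay medium, pH 6.0. Same strain lacking NS1 served as positive control.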
Marburg entry inh: qHTS for inhibitors of binding or entry into cells for Marburg Virus; Marburg virus pseudotyped entry inhibition, cell reporter; control for the full effect not named in the record; about a third of the inactives were read at about 46 µM; Potency, µM (series often up to 37.8 µM), for the others: top-dose activity change, negative = inhibition, usual class: inhibitors; 300,000 compounds, 1.8% hits; active = well fitted inhibition curve with a large enough effect; inconclusive = small, poorly fitted or top-dose-only effect, or effect the other way; inactive = flat fitted curve, though single readings scatter; tested in HEK293 cells; about a fifth of its hits are not listed in these tables; note: % is set by controls: 0 for no effect and ±100 for the full control effect; luciferase read-out
The depositor's hits bear a star; ? = inconclusive; / = not tested or not shown; & = joins results of further samples; [ ] = another dose, or the depositor's remark. Unless noted, calls come from the whole dose curve; as a rule, active means well fitted rising curve with a large enough effect; inconclusive means small, poorly fitted or top-dose-only effect; inactive means no such curve, though single readings can be large or run the other way. Potency is the fitted concentration of half-maximal effect.

SMILES	SARS PLP yeast	Lassa entry inh	Cruzain Triton	Cruzain inh noDet	StopGo reporter	RE007 growth inh	NS1 inh	Marburg entry inh
O=C(OCn1nnc2ccccc2c1=O)c1ccc(O)cc1	-7%	-3%	/	/	-3%	-1%	3%	0%[46.1 µM]
CCOC(=O)c1c(NC(=O)COc2cc(C)ccc2C(C)C)sc2c1CCCC2	/	-25%[46.1 µM]	-1.0%	-5%	-5%	/	/	/
CC(C)c1ccc(Cc2nnc(NCCCO)[nH]c2=O)cc1	4%	/	/	/	-25%	-7%	0%	/
Cc1nc(CC(=O)Nc2ccc(C(N)=O)cc2)cs1	/	5%[46.1 µM]	-1.4%	-7%	-4%	/	/	?
CCc1ccccc1NC(=O)CN1CCN(C(=O)CN2C(=O)NC3(CCCCC3C)C2=O)CC1 (stereo unspecified)	-4%	13%	/	/	0%	3%	/	1%[46.1 µM]
Cc1cccc(C)c1NC(=S)NC(=O)CCc1ccccc1	3%	?	-12%	-7%	-19%	3%	-3%	-21%
NC(=O)C1CC(=O)N(CCc2ccc(F)cc2)C1 (stereo unspecified)	4%	/	/	/	6%	0%	20%	/
CC(C)(C)n1ncc2c(=O)n(CC(=O)c3ccccc3)cnc21	-28%	?	3.8%	-19%	7%	-5%	-4%	7%
O=C(/C=C/c1ccccc1[N+](=O)[O-])Nc1cccnc1	-1%	?	-2.0%	5%	29%	/	-5%	?
CCc1ncc(/C=C2\C(=O)Nc3ccccc32)[nH]1	-2%	-5%[46.1 µM]	/	/	-5%	4%	-1%	?
CCCCNC(=O)CCCn1c(=O)c2ccccc2n(Cc2ccc(Cl)cc2)c1=O	/	-29%[46.1 µM]	-3.2%	-1%	?	/	/	4%[46.1 µM]
O=S(=O)(NC1CC1)c1ccccc1	4%	/	/	/	2%	7%	5%	/
CCC(C(=O)O)N1C(=O)/C(=C/c2cccn2C)SC1=S (stereo unspecified)	?	0%	-23%	-17%	3%	-1%	13%	6%
O=C(COc1ccc(Br)cc1)Nc1ccc2oc(=O)ccc2c1	?	12%	/	/	-22%	17%	-3%	20%
Cc1ccccc1CN1c2ccccc2S(=O)(=O)c2ccccc21	/	0%[46.1 µM]	-1.5%	-5%	-19%	/	/	/
N#C/C(=C\c1ccc(C(=O)O)cc1)S(=O)(=O)c1cc(Br)ccc1Br	-2%	2%	/	/	-12%	14%	/	-2%[46.1 µM]
CCNC(=S)NS(=O)(=O)c1ccc(C)cc1	-13%	-5%	-8.7%	7%	0%	7%	-34%	-8%
CC1CCOC(c2coc3ccccc3c2=O)O1 (stereo unspecified)	0%	?	3.1%	-8%	9%	-28%	3%	?
CCCn1nc(NS(=O)(=O)c2ccc(F)cc2)c2cc3ccccc3nc21	-2%	?	/	/	28%	-3%	2%	-2%[46.1 µM]
C/C=C/c1ccc(OCC(O)CN(C)Cc2ccc(SC)cc2)c(OC)c1 (stereo unspecified)	-4%	/	/	/	-11%	-24%	-3%	/
COc1ccc(NC2CCCN(C(=O)CSc3ccccn3)C2)cc1OC (stereo unspecified)	15%	-6%[46.1 µM]	/	/	6%	2%	21%	6%[46.1 µM]
C/C(=N\NC(=O)c1ccc(NS(=O)(=O)c2cccs2)cc1)c1ccccc1	-18%	-4%	-2.7%	12%	8%	/	16%	7%
CCCOc1ccc(C(=O)CCNc2cccc(Cl)c2)cc1	3%	-15%	/	/	16%	-4%	/	?
Cc1cc(=O)n2[nH]cnc2n1	-25%	16%	-2.0%	-2%	-14%	-3%	1%	-2%
OC(CN(c1ccccc1)c1ccccc1)Cn1cnc2ccccc21 (stereo unspecified)	-9%	-6%	-5.6%	13%	32µM*	-2%	-105%	?

Later entries.
SMILES	SARS PLP yeast	Lassa entry inh	Cruzain Triton	Cruzain inh noDet	StopGo reporter	RE007 growth inh	NS1 inh	Marburg entry inh
COC(=O)CSc1nc(N)c2c3c(sc2n1)CCCC3	-5%	-5%	-10%	5%	39%[activator]	?	-82%	-1%
O=c1c(-c2ccccc2)[n+]([O-])c2ccccc2n1O	-1%	14%	-2.0%	0%	15%	-1%	-6%	-2%
Cc1ccc(NC(=O)CN2C(=O)CSc3ccc(S(=O)(=O)N4CCCC4)cc32)c(C)c1	/	2%[46.1 µM]	-2.3%	10%	16%	/	/	/
CN(C)S(=O)(=O)c1ccc(NC(=O)CN2CCc3ccccc32)cc1	0%	/	/	/	22%	1%	-2%	/
CCN(CC)C(=O)Oc1ccc(Br)cc1C(=O)Nc1ccc(F)cc1F	-1%	-6%	/	/	-2%	-11%	-7%	-4%
Cc1ccc(Cl)cc1N1CCN(C(=O)CCSCc2ccccc2F)CC1	/	-10%[46.1 µM]	-0.8%	-2%	-5%	/	/	/
O=C(c1ccc(Br)cc1)N1CCC2(CC1)NCCc1[nH]cnc12	0%	0%[46.1 µM]	/	/	3%	-5%	-3%	-10%[46.1 µM]
CC(C)(C)c1ccc(C2(C)NC(=O)N(CC(=O)NC3CCS(=O)(=O)C3)C2=O)cc1 (stereo unspecified)	-4%	7%	/	/	-16%	-7%	/	?
COc1ccc(-c2cc(C(=O)Oc3cccc(C)c3)c3ccccc3n2)cc1	/	?	-7.8%	?	3%	/	/	?
COc1cc(OC)cc(-n2nnnc2SCC(=O)N2CCCc3ccccc32)c1	2%	1%	1.1%	0%	/	8%	-8%	1%
NC(=O)C(C(=O)/C=C/c1ccc(Cl)cc1)=C1SCCS1	0%	/	/	/	?	-1%	-2%	/
COc1ccc(/C=C2\SC(N3CCc4ccccc4C3)=NC2=O)cc1	-42%	?	-9.2%	-13%	-5%	7%	4%	?
COC(=O)C1=C(C)OC(N)=C(C#N)C1c1ccsc1 (stereo unspecified)	-1%	19%	-2.2%	-11%	-4%	0%	0%	6%
O=C(CNC(=O)OCc1ccccc1)Oc1cc2oc(=O)cc(-c3ccccc3)c2cc1Cl	-5%	2%	-1.0%	?	/	5%	-26%	-2%
O=C(Nc1cccc(O)c1)c1cc(S(=O)(=O)N2CCCC2)ccc1Cl	1%	-3%	0.4%	4%	-3%	3%	-5%	?
CN(C)CCN(C(=O)c1ccc(S(=O)(=O)N(C)CC2CCCO2)cc1)c1nc2cc3c(cc2s1)OCO3 (stereo unspecified)	-3%	-1%	/	/	-15%	-7%	4%	?
Cc1ccc(N(CC(=O)Nc2ccc(Br)cc2)S(=O)(=O)c2cccs2)cc1	/	3%[46.1 µM]	-6.5%	-14%	5%	/	/	4%[46.1 µM]
O=C(Cc1cccs1)NCc1cn2ccccc2n1	2%	/	3.3%	6%	-24%	-6%	-17%	/
CC(=O)c1cc(CN2C(=O)CCC2=O)cs1	-3%	7%	-0.3%	-3%	/	32%	2%	?
CCc1ccccc1NCc1nnc2n1CCCCC2	/	10%[46.1 µM]	0.7%	12%	-10%	/	/	/
COC(=O)c1ccccc1NC(=O)CSc1n[nH]c(C)n1	17%	12%[46.1 µM]	-2.0%&-2.3%	10%&-1%	-8%&-9%	24%	2%	-12%[46.1 µM]
Cn1c(=O)n(C)c2cc(/C=N/NC(=O)c3cccc(Br)c3)ccc21	-2%	-1%	?	?	-2%	2%	1%	-30%
O=S(=O)(NCc1cccnc1)c1ccc(Cl)cc1	5%	/	/	/	32%[activator]	0%	3%	/
Cc1ccc(CN(Cc2ccco2)C(=O)COc2cccc(C)c2C)o1	/	-26%[46.1 µM]	-8.6%	-6%	0%	/	/	?
N#C/C(=C/c1ccccc1)C(=O)NCc1ccccc1	-4%	/	/	/	-6%	17%	-31%	-18%[46.1 µM]

Next section.
SMILES	SARS PLP yeast	Lassa entry inh	Cruzain Triton	Cruzain inh noDet	StopGo reporter	RE007 growth inh	NS1 inh	Marburg entry inh
COc1cc(CNC(=O)CCCC(=O)c2ccccc2)cc(OC)c1OC	-1%	/	/	/	-20%	-3%	-3%	/
O=C(C1CC1)N1CCN=C1SCc1ccccc1	0%	/	3.0%	-3%	-19%	-2%	4%	1%
COC(=O)CC1C(=O)NCCN1C(=O)OC(C)(C)C (stereo unspecified)	0%	/	/	/	-3%	-26%	6%	/
c1ccc2c(c1)[I+]c1ccccc1-2	/	0.26µM*	-7.6%&-6.9%	4%&6%	?	/	-44%	0.28µM*
CCn1c2ccccc2c2cc(NC(=O)COc3cccc(C)c3)ccc21	/	4%[46.1 µM]	-5.1%	-23%	-22%	/	/	11%[46.1 µM]
Fc1ccc(-c2cc3nc4c(c(N5CCOCC5)n3n2)CCCC4)cc1	-15%	?	-14%	3%	/	-9%	-67%	?
CCOc1ccc(-c2cc3nc(C4CCN(C(=O)OC(C)(C)C)CC4)c(C(=O)Nc4ccc(C)cc4C)cn3n2)cc1	/	?	-20%	?	-12%	/	/	?
COc1ccc(S(=O)(=O)NC(C)C(=O)Nc2ccc3c(c2)OCCO3)cc1OC (stereo unspecified)	-18%	2%	/	/	-9%	-5%	6%	-13%[46.1 µM]
O=C(c1ccc(Br)cc1)c1coc2ccc(O)cc12	/	15%	/	/	10%	-7%	/	4%[14.2 µM]
CCOC(=O)c1nnn(-c2nonc2N)c1COc1c(C=O)cccc1OC	-16%	?	-1.1%	-9%	-6%	8%	6%	?
O=C(Nc1ccc(F)cc1)c1cc(-c2ccncc2)nc2c(Cl)cccc12	3%	?	/	/	?	2%	-9%	?
COc1ccccc1CCc1nnc(CCC(=O)NCCOc2cccnc2)o1	1%	-4%[46.1 µM]	/	/	-3%	-1%	1%	1%[46.1 µM]
CCCCCC(=O)OC(CN1CCCCCC1)CN1CCCC1=O (stereo unspecified)	2%	/	/	/	1%	3%	0%	/
O=C(Cn1nnc(-c2ccccc2)n1)NNC(=O)c1ccco1	1%	13%	/	/	-2%	0%	-1%	9%
COC(=O)CSc1nnc(CNC(=O)Cc2ccccc2)n1C	3%	0%	5.2%	-4%	21%	1%	2%	1%
Cc1ccc(NC(=S)N(CCCN2CCC(C)CC2)Cc2ccco2)cc1	3%	-24%	/	/	3%	-10%	-3%	?
COC(=O)c1[nH]c2cccc(Cl)c2c1NC(=O)CN1CCCCC1C (stereo unspecified)	1%	-15%	2.8%	-10%	-13%	4%	-5%	?
